# VDR inhibitor – blocks the human vitamin D receptor; actives 0.93% (n = 400,000); P11473; Potency, µM, inactives show max response, negative = inhibition, most hits filed as inhibitors; VDR-SRC2-3 peptide fluorescence polarization, 2 h; active means well fitted inhibition curve with a large enough effect; inconclusive means small, poorly fitted or top-dose-only effect, or another doubt; inactive means no such curve, though single readings can be large or run the other way; further: series mostly up to about 120 µM
# Target sequence (P11473 whole entry, looked up): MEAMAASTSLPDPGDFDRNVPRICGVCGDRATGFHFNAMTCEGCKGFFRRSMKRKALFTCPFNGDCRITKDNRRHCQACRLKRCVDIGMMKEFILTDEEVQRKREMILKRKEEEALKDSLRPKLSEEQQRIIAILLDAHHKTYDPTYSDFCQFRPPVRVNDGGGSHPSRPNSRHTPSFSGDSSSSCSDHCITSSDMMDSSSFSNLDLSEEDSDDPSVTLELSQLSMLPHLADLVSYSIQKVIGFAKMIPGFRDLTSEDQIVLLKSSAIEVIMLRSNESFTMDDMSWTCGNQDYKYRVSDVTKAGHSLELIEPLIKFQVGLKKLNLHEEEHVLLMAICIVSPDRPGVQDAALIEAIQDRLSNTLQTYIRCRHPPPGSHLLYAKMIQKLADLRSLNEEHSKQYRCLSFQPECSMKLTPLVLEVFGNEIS
#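 FP read-out; VDR + SRC2-3 coactivator peptide; 23 nl compound by pintool; 2 h RT incubation; reagents held at 4 deg C, protected from light.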
# Numbers without * were called inactive; ? = inconclusive; & = joins results of further samples. On the % scale 0 is the no-effect control and ±100 the full control effect; potency means the concentration at half of the fitted maximal effect.
VDR inhibitor	compound
-12.6%	O=C(COC(=O)CNC(=O)c1cccc([N+](=O)[O-])c1)Nc1cccc(S(=O)(=O)N2CCCCC2)c1
2.8%	Cc1nc2sc(C(c3ccccc3)N3CCN(C(=O)c4ccco4)CC3)c(O)n2n1 (stereo not given)
-4.1%	CCN(CC)S(=O)(=O)c1ccc(OC)c(NC(=O)CSc2cc(C)ccc2C)c1
7.9%	O=C1c2ccccc2C2(c3ccc(F)cc3)NCCN12 (stereo not given)
-12.0%	O=C(O)c1ccc(-c2ccc(Cl)cc2Cl)o1
-6.4%	COc1ccc(/C=C2\SC(=O)N(CCC(=O)NC3CCS(=O)(=O)C3)C2=O)cc1 (stereo not given)
1.7%	CN(C)S(=O)(=O)N(CC(=O)N1CCC(Cc2ccccc2)CC1)c1ccccc1
?	COC(=O)c1ccc(/C=C2\CCn3c2nc2cc(C(=O)O)ccc2c3=O)cc1
-1.9%	COc1ccccc1C(=O)Nc1cc2cc(Cl)ccc2oc1=O
?	CCOc1ccc(Br)cc1S(=O)(=O)N1CCCC1
1.2%	CCCN1CN(CCc2ccccc2)CNC1=S
2.6%	COC(=O)c1ccc(CSc2nc3ccccc3c(=O)n2CC(C)C)o1
3.2%	Cc1ccc(S(=O)(=O)N(CC(=O)N(C)C)c2cccc([N+](=O)[O-])c2)cc1
-14.2%	COc1cc(C(=O)OCC(=O)Nc2nnc(-c3ccccc3)o2)cc(OC)c1OC
15.1%	CC(=O)Nc1ccc(-c2csc(NC(=O)Cc3cccc(F)c3)n2)cc1

# (list continues)
VDR inhibitor	compound
-12.9%	CCn1c(CO)nc2c1c(=O)[nH]c(=O)n2Cc1ccccc1
-7.3%	CCCC(=O)Nc1nnc(S(=O)(=O)N(CC(C)C)c2ccccc2)s1
-1.9%	COc1ccc(C2C(=O)N(C3CCCCCC3)CC(=O)N2CCc2ccccc2)cc1 (stereo not given)
-5.6%	COc1cc(OC)cc(C(=O)OCC(=O)NCCCc2ccccc2)c1
-10.8%	CCOc1ccccc1NC(=O)CSc1nnc2ccc(-c3ccccn3)nn12
7.3%	CC(NC(=O)c1ccccc1NC(=O)CN1CCN(c2ccccc2O)CC1)c1ccccc1 (stereo not given)
10.5%	COc1ccccc1C(CC(=O)Nc1ccccc1C)c1ccc(OC(C)C)cc1 (stereo not given)
?	COc1ccc(N=C2C(=S)N(c3ccc(OC)cc3)C(=NS(=O)(=O)c3ccccc3)N2c2ccccc2)cc1
-25.0%	Cn1cnnc1SCC(=O)Nc1cccc(S(=O)(=O)N2CCOCC2)c1
9.1%	COc1ccc(Cl)cc1S(=O)(=O)N1CCN(CC(=O)Nc2ccccc2C(F)(F)F)CC1
-1.9%	Cc1cc(C(=O)Nc2ccc(C(C)C)cc2)c2c(C)nn(-c3ccccc3)c2n1
?	COc1ccc(NC(=O)CN(C)C(=O)c2c(C)nn(Cc3ccc(C)cc3)c2Cl)cc1
-0.3%	Brc1ccc(COc2ncnc3ccccc23)cc1
-22.4%	COc1ccc(-c2cc(C(=O)Nc3ccc(S(N)(=O)=O)cc3)c3ccccc3n2)cc1OC
-17.2%	CCCOc1ccc(C2C(=O)N(C3CCCCCC3)CC(=O)N2Cc2ccco2)cc1OC (stereo not given)

# Additional entries:
VDR inhibitor	compound
-22.1%	N#Cc1c(N2C(=O)c3ccc(C(=O)O)cc3C2=O)sc2c1CCCC2
-6.9%	Cc1occc1C(=O)NC(C)CCc1ccccc1 (stereo not given)
-13.1%	C=CCNCC(=O)N1N=C(c2ccc3ccccc3c2)CC1c1ccc(OC)cc1 (stereo not given)
-10.7%	O=C(c1cc(C(F)(F)F)cc(C(F)(F)F)c1)N1CCC2(CCN(Cc3ccccc3)CC2)CC1
-6.7%	CC(/C=N/NC(=O)c1ccc(Br)cc1)=C\c1ccccc1
3.16µM*	CC1=C(C)CS(=O)N(S(=O)(=O)c2ccccc2)C1 (stereo not given)
-8.2%	CN(CC(=O)O)S(=O)(=O)c1ccc2c(c1)NC(=O)CC(=O)N2
-9.4%	CC(C)(C)OC(=O)N1CCCC(C(=O)Nc2ccc(C(=O)N3CCCCC3)cc2)C1 (stereo not given)
3.2%	Cc1cc(NC(=O)CC(CN(C)S(=O)(=O)c2ccccc2)c2ccccc2)no1 (stereo not given)
-5.0%	COCCNC(=O)C1Nc2ccc(C(F)(F)F)cc2C2C=CCC12 (stereo not given)
9.6%	CCOc1cc(C2/C(=C(/O)c3ccc(OC(C)C)cc3)C(=O)C(=O)N2CCCOC)ccc1O (stereo not given)
5.0%	Cc1cc(C)nc(NC(=O)c2ccc([N+](=O)[O-])o2)n1
15.5%	CCN1/C(=C/c2ccc3ccccc3[n+]2CC)C=Cc2ccccc21
-6.3%	CSc1nc(C)c2c(n1)N(c1ccc(F)cc1)CC2
-5.3%	OC(Cc1nc2ccccc2[nH]1)c1ccccc1Cl (stereo not given)

# Other entries follow.
VDR inhibitor	compound
-8.9%	N#C/C(N)=C(/C#N)N=Cc1cccc(Cl)c1
-2.7%	COc1ccc(Nc2nc(-c3ccncc3)nc3ccccc23)cc1
-4.0%	CC1(C)CC(=O)C2=C(C1)OC(N)=C([N+](=O)[O-])C2c1ccc(F)cc1 (stereo not given)
-29.5%	CCCCSc1ncnc2c1c(-c1ccccc1)cn2-c1cccc(F)c1
-8.4%	O=C(O)CCCCCN1C(=O)CCC1=O
8.1%	CCOC(=O)CC(NC(=O)c1ccc(C)cc1)c1ccc(OC)cc1 (stereo not given)
-7.2%	C=C(C)CCOC(=O)C(CC(=O)O)NCc1ccco1 (stereo not given)
-3.0%	CCOc1ccc(S(=O)(=O)N2CCCC(C(=O)N3CCN(CC)CC3)C2)cc1Cl (stereo not given)
3.2%	O=C(NC1=NCCS1)c1cc2ccccc2o1
-3.4%	CCN(CC)S(=O)(=O)c1ccc(O)c(C(=O)OCC(=O)NC23CC4CC(CC(C4)C2)C3)c1
-0.6%	COc1ccc(CNC(=O)C2CCN(c3nnc(-n4cccc4CNc4ccc(C)cc4)s3)CC2)c(OC)c1
-12.4%	CCCCn1c(N)c(N(CC(C)C)C(=O)C2CCCO2)c(=O)[nH]c1=O (stereo not given)
-5.7%	CC(CN1CCCC1)OC(=O)c1cccc(F)c1 (stereo not given)
-20.6%	Cc1ccccc1NC(=O)c1cccc(S(C)(=O)=O)c1
-12.1%	COc1ccc(N2CCC(CNC(=S)Nc3ccc(C)cc3C)C2)cc1 (stereo not given)

# In the list so far, these contain an NH in an aromatic ring:
VDR inhibitor	compound
-12.9%	CCn1c(CO)nc2c1c(=O)[nH]c(=O)n2Cc1ccccc1
-5.3%	OC(Cc1nc2ccccc2[nH]1)c1ccccc1Cl (stereo not given)
-12.4%	CCCCn1c(N)c(N(CC(C)C)C(=O)C2CCCO2)c(=O)[nH]c1=O (stereo not given)

# Other structures:
VDR inhibitor	compound
3.1%	CCN(CC(=O)Nc1ccc(NC(C)=O)cc1)C(=O)c1cccc(N2C(=O)c3ccccc3C2=O)c1
-3.1%	CC(Oc1ccccc1F)C(=O)NNC(=O)c1ccc(-n2cncn2)c([N+](=O)[O-])c1 (stereo not given)
-10.8%	O=C(NCc1ccccc1)c1onc(CSc2ccccc2)c1C(=O)NCC1CC1
-2.9%	Cc1cccc(NC(=O)c2cccc(S(=O)(=O)N3CCCCC3)c2)c1
-18.4%	O=C(NC1CCCCCCC1)c1c(Cl)cccc1Cl
-8.7%	CN(CC(=O)Nc1cccc(F)c1)CC(=O)Nc1ccccc1-c1ccccc1
-4.9%	COc1cc(C)ccc1OCc1cc(C(=O)N(Cc2nccn2C)C(C)C)no1
2.3%	O=C(CCCn1c(=S)[nH]c2cc3c(cc2c1=O)OCO3)NC1CC1
-1.4%	CC(OC(=O)c1ccc(Br)o1)C(=O)NCC1CCCCC1 (stereo not given)
1.2%	COc1ccc(-c2csc(NC(=O)Cc3cccc4ccccc34)c2C(=O)O)cc1
1.1%	COc1ccc(CNC(=O)C2CCC(CNS(=O)(=O)c3cccc4nsnc34)CC2)cc1 (stereo not given)
-2.5%	Oc1ccccc1/C=N/n1c(COc2ccccc2)n[nH]c1=S
5.6%	CCN(CC)CCN1C(=O)c2oc3ccccc3c(=O)c2C1c1ccccc1 (stereo not given)
2.7%	Cc1cc(O)c(C(=O)Nc2cccc(Cl)c2)c(=O)n1C
-10.4%	CN(CC(=O)NC1CCN(Cc2ccccc2)CC1)S(=O)(=O)c1ccc(Cl)cc1

# (next part)
VDR inhibitor	compound
-10.7%	Nn1c(SCc2ccc(F)cc2)nnc1-c1cccnc1
0.5%	O=C1C2C3C=CC(CC3)C2C(=O)N1c1ccc(F)cc1 (stereo not given)
-15.2%	CCCc1nn2c(=O)cc(O)nc2s1
24.9%	O=C(CCc1nc2ccccc2c(=O)[nH]1)NNC(=O)COc1ccccc1Cl
-7.3%	Cc1ccc(C(C)C)c(OCCN2CCc3ccccc3C2)c1
-2.3%&-1.8%	Cc1ccn2c(Nc3ccccc3C)c(-c3cccnc3)nc2c1
3.9%	CC1(C)CC(=O)C2=C(C1)N(CCN1CCOCC1)C1=C(C(=O)CC(C)(C)C1)C2c1ccc(Cl)c([N+](=O)[O-])c1
-26.8%	CCOC(=O)C1=C(C)N(CCCC(=O)O)C(=O)NC1c1ccccc1OS(=O)(=O)c1ccccc1[N+](=O)[O-] (stereo not given)
-17.0%	S=C(Nc1ccc(CN2CCCCC2)cc1)Nc1cccc(Cl)c1Cl
5.4%	Cc1nc(NC(=O)C2CC3CCCC(C2)C3=O)sc1C (stereo not given)
-17.5%	COc1ccc(NC2=C(C)C(=O)CC2)cc1
-1.2%	COc1cc(CNc2ncc(-c3ccc(Br)cc3)n2C)cc(OC)c1OC
4.1%	CCn1nnc2cc(C(=O)Nc3cc(S(C)(=O)=O)ccc3Cl)ccc21
10.8%	CC(=O)Nc1nc(C)c(-c2csc(Nc3ccc(S(N)(=O)=O)cc3)n2)s1
-4.1%	O=C(COc1ccccc1[N+](=O)[O-])N/N=C/c1cccc(OC(=O)c2ccc3c(c2)OCO3)c1

# Continuation.
VDR inhibitor	compound
16.2%	CCOc1ccc(-n2c(C)c(C(C)=O)c(C(C)=O)c2C)cc1
-15.7%	CCN(CC(=O)Nc1cc(S(=O)(=O)N2CCOCC2)ccc1C)Cc1ccccc1
10.9%	Cc1cc(NC(=O)c2ccc(NC(=O)C3CC3)cc2)no1
-9.7%	O=C(CC1C(=O)NCCN1Cc1ccccc1)NCCC1=CCCCC1 (stereo not given)
-5.3%	COC(=O)c1ccc(OC)c(CN2CCCN(Cc3cc(C)ccc3C)S2(=O)=O)c1
5.2%	Cc1ccc(OC(=O)CSc2nnc(-c3cccs3)o2)cc1
-21.8%	CC(=O)Nc1cccc(NC(=O)C2CC3CCC2C3)c1 (stereo not given)
-5.5%	O=C(NCCc1csc(-c2cccnc2)n1)c1ccc(F)c(F)c1
21.7%	O=C(NCCN1CCOCC1)c1c(F)c(F)c(F)c(F)c1F
5.3%	COCCN(C(=O)CSc1nnc(C)n1-c1ccccc1)c1c(N)n(Cc2ccccc2)c(=O)[nH]c1=O
0.1%	CCOCC(O)CNC(=O)c1ccc(OC2CCN(C(=O)c3cccnc3)CC2)cc1 (stereo not given)
10.5%	COc1ccc(OCCC(=O)OCC(=O)NCc2ccc(F)cc2)cc1
-2.5%	COC(=O)c1sc2cccc(F)c2c1S(=O)(=O)N1CCN(c2ccc(C)cc2C)CC1
-15.6%	COC(=O)c1noc(C)c1-c1ccnn1C(=O)c1ccc(Cl)cc1
?	COc1ccc(OC)c2cc3ccccc3cc12

# Other compounds follow:
VDR inhibitor	compound
0.7%	Cc1cc2oc(=O)cc(CN3CCN(Cc4ccc5c(c4)OCO5)CC3)c2cc1C
0.6%	CCOc1ccc(C(=O)NC(C(=O)NCC2CCCO2)C(C)C)cc1 (stereo not given)
-2.4%	COc1ccc(NC(=O)c2ccccc2NS(=O)(=O)c2ccc(C)cc2)c([N+](=O)[O-])c1
8.9%	COc1ccccc1C(=O)Nc1cccnc1
11.6%	CC(=O)Nc1ccc(NC(=O)c2c(-c3ccccc3Cl)noc2C)c(C)c1
-6.7%	COc1cc(C2c3sc(=O)[nH]c3SC3C(=O)N(c4ccc(Br)cc4)C(=O)C32)ccc1O (stereo not given)
0.3%	O=S(=O)(c1ccccc1)N1CCC2(CCCN(Cc3cc(C(F)(F)F)cc(C(F)(F)F)c3)C2)CC1
3.9%&0.1%	O=C(c1ccccc1)N1CCN(S(=O)(=O)c2ccccc2)CC1
?	COc1ccc(C(=S)Nc2ccc(C)cc2)cc1
-3.8%	CC(C(=O)Nc1cccc([N+](=O)[O-])c1)N1CCN(C/C=C/c2ccccc2)CC1 (stereo not given)
8.1%	CCC1CN(C(=O)N2CCC(C(=O)NCc3cccc(F)c3)CC2)c2ccccc2O1 (stereo not given)
-4.6%	CN(C)C(CNS(=O)(=O)c1ccc(Cl)cc1)c1cccnc1 (stereo not given)
-3.4%	Cc1ccsc1C(=O)NNC(=O)C1CCCCC1C(=O)O (stereo not given)
?	CCCn1c(=S)[nH]c2cc(Cl)ccc21
-6.8%	O=C(c1ccc(Br)o1)N1CCN(c2ccc3nnc(-c4ccccc4)n3n2)CC1
-4.1%	CCOc1ccc(CCNC(=O)CCCc2nnc3n(CC(C)C)c(=O)c4sccc4n23)cc1

# Six of these compounds in a different format:
Structure | VDR inhibitor
O=S(=O)(c1ccccc1)N1CCC2(CCCN(Cc3cc(C(F)(F)F)cc(C(F)(F)F)c3)C2)CC1 | 0.3%
Cc1ccsc1C(=O)NNC(=O)C1CCCCC1C(=O)O (stereo not given) | -3.4%
CCOc1ccc(C(=O)NC(C(=O)NCC2CCCO2)C(C)C)cc1 (stereo not given) | 0.6%
CCOc1ccc(CCNC(=O)CCCc2nnc3n(CC(C)C)c(=O)c4sccc4n23)cc1 | -4.1%
CCCn1c(=S)[nH]c2cc(Cl)ccc21 | ?
CC(C(=O)Nc1cccc([N+](=O)[O-])c1)N1CCN(C/C=C/c2ccccc2)CC1 (stereo not given) | -3.8%

# Assay outcomes deposited in PubChem BioAssay by National Center for Advancing Translational Sciences (NCATS).

# An excerpt, so the mix of outcomes need not match the whole.
